Bioassay records as filed in PubChem BioAssay.
D2 potentiator: potentiates the human D2 dopamine receptor allosterically. AID 624464. 0.23% of 360,000 active. P14416. potentiation, % (test concentration not listed). DiscoveRx D2 beta-arrestin cells, luminescence, 90 min; 100% = 57 uM dopamine signal; active = potentiation of 50% or more; inconclusive = 30% to 50%; inactive = 30% or less;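 note: compound concentration not given in the record; tested on top of an EC20 dose of dopamine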
Target sequence (P14416 whole entry, looked up): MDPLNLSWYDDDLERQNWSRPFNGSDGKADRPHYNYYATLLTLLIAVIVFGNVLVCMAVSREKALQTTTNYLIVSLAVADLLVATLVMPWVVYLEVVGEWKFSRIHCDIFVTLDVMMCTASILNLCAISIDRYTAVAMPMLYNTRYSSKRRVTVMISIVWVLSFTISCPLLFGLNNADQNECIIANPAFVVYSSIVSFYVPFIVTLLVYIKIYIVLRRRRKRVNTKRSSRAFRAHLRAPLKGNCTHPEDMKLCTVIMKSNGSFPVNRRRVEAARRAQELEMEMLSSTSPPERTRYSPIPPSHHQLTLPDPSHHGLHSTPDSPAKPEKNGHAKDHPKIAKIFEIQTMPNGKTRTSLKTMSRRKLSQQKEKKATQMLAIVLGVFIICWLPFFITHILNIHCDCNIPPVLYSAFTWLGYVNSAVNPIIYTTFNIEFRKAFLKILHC
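PathHunter D2 cells, attached overnight at 37 deg C, received compound in DMSO plus dopamine at EC20 (50 nM final) for 90 min at 37 deg C. Beta-arrestin recruitment was read as luminescence after 1 h with detection reagent at ambient temperature.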
TRPV1 potentiator: enhances activation of the human vanilloid receptor TRPV1. TRPV1-expressing cells, Fluo-8 calcium influx, capsaicin EC20 potentiation; host cell line not named in the record; control for the full effect not named in the record. Q8NER1. 0.02% of 320,000 active. potentiation, % at 8.33 µM; active means potentiation above 80%; inconclusive means 30% to 80%; inactive means below 30%; note: 0% is about no effect
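TRPV1-expressing cells were cultured overnight at 35.5C and loaded with Fluo-8 calcium dye for 40 to 90 min at room temperature. After a 10 s baseline, compound was added and calcium influx was read kinetically for 3 min (ex 480/em 520 nm).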
Six1-Eya2 inh: Six1/Eya2 interaction inhibition; AlphaScreen GST-Six1/His-Eya2 binding, biochemical; stronger effect = lower value; control for the full effect not named in the record; Q15475+O00167; activity change, % (no concentration beside the values); 0.56% of 360,000 active; in the data active = activity change below about -65%; inconclusive = about -30% to -65%; inactive = above about -30%; note: % is set by controls: 0 for no effect and ±100 for the full control effect; compound concentration not given in the record
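AlphaScreen with GST-Six1 and His-Eya2 (5X mix: 250 nM and 500 nM), glutathione donor and nickel acceptor beads; buffer 50 mM Tris pH 8.0, 300 mM NaCl, 1 mM TCEP; 1 h at 37 C in the dark.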
TRPML1 agonist: agonists of human TRPML1 channel; activation, % (test concentration not listed); TRPML1-expressing cells, Ca2+ dye fluorescence, FDSS; host cell line not named in the record; reference of the full effect not given here; 0.12% of 410,000 active; AID 624414; in the data active = activation above about 50%; inconclusive = about 30% to 50%; inactive = below about 30%; note: 0% is about no effect; the text of the record puts the active cut at 80%
Target sequence (Q9GZU1 whole entry, looked up): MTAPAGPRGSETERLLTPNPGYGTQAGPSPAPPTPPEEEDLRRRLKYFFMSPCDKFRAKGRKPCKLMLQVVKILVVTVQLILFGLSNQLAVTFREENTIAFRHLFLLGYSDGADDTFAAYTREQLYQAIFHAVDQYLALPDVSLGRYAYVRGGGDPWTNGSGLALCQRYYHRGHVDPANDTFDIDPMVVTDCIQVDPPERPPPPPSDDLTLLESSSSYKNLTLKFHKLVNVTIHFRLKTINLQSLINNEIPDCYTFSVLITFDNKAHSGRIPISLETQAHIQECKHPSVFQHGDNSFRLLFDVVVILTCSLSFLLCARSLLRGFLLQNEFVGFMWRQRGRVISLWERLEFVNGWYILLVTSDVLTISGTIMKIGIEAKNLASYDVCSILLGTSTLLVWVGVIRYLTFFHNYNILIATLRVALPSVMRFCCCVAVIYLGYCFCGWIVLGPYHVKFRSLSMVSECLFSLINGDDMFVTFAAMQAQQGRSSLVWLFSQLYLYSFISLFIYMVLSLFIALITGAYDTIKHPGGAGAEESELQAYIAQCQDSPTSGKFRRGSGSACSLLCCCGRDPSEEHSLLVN
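TRPML1-DL cells, Tet-induced overnight (~16 h, 37 degrees C), loaded 45-90 min at room temperature with Ca8 no-wash calcium dye plus quencher. FDSS fluorescence: 10 s baseline, compound pin-transfer, 110 s agonist read, then EC80 54-4 (4uM final) and 110 s antagonist read.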
TRPML1 blocker: blocks the human TRPML1 channel. Q9GZU1. TRPML1-inducible cells, Ca2+ dye fluorescence, FDSS; stronger effect = lower value; inhibition of EC80 agonist-evoked calcium signal. activity change, negative = inhibition, % (test concentration not listed). 0.02% of 390,000 active; in the data active means activity change below about -50%; inconclusive means about -30% to -50%; inactive means above about -30%;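 note: stimulus is agonist 54-4 at its EC80 concentration; % is set by controls: 0 for no effect and ±100 for the full control effect; compound concentration not given in the record; the text of the record puts the active cut at -80%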
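Tet-induced TRPML1-DL cells loaded with Ca8 no-wash calcium dye were read kinetically on FDSS. Compound addition was followed by EC80 agonist 54-4 (4 uM final); inhibition was read over 110 s.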
CtBP-E1A inh: inhibitors of CtBP/E1A interaction; AlphaScreen GST-E1A/His-CtBP binding, 1536-well; stronger effect = lower value; control for the full effect not named in the record; 0.49% of 340,000 active; activity change, % (concentration not given with the values); AID 651724; in the data active means activity change below about -65%; inconclusive means about -30% to -65%; inactive means above about -30%; note: % is set by controls: 0 for no effect and ±100 for the full control effect
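Steps: dispense buffer (Tris pH 8.0, NaCl 300 mM, TCEP 1 mM, BSA, Tween 20); add 5X protein mix (GST-E1A, His-CtBP, 125 nM each); pin 23 nL compound; 2 h at 37 °C, dark; add 5X beads (50 ug/mL); 1 h; read.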
Starred values were filed as active, the others as inactive; ? = inconclusive; / = not tested or not shown; & = joins results of further samples.

SMILES	D2 potentiator	TRPV1 potentiator	Six1-Eya2 inh	TRPML1 agonist	TRPML1 blocker	CtBP-E1A inh
O=C1[C@H]2[C@@H](c3ccc(F)cc3)N3C(=O)N(c4cccc(Cl)c4)C(=O)[C@@]3(Cc3ccccc3)[C@H]2C(=O)N1C1CCCCC1	-15	-11	-11	0.3	5	-14
O=C(CSc1ccc(-c2ccco2)nn1)N1CCCCCC1	1	1	-3	-0.4	12	-7
CCCn1c(=N)c(C(=O)NCc2ccc3c(c2)OCO3)cc2c(=O)n3cccc(C)c3nc21	-13	-7	-22	0.0	-10	?
COc1ccc(OCC(=O)OC(C)CN2CCOCC2)cc1 (stereo not given)	-7	-9	5	-0.9	18	0
Nc1cc2c(cc1C(=O)c1cccc(Br)c1)OCCO2	-2	4	-21	0.3	-12	-22
COc1ccc(CN2C(=O)c3cccc4cccc(c34)C2=O)cc1	-8	-9	-6	1.9	27	10
COc1ccc(NC(=O)CCCn2nc(C)c3c(C)n(-c4ccccc4)nc3c2=O)cc1OC	-6	9	2	1.3	4	-5
Cc1noc(C)c1C(=O)NCCC1=CCCCC1	-10	4	-1	0.2	25	1
Cc1[nH]n(-c2ccccc2)c(=O)c1C(c1cccc([N+](=O)[O-])c1)c1c(C)[nH]n(-c2ccccc2)c1=O	-20	7	-22	0.8	-13	-17
CCC(=O)c1ccc(OCC(=O)Nc2ccccc2C(=O)N2CCCCC2)cc1	30	-4	-8	2.8	-1	-14
COc1ccc(S(=O)(=O)Nc2ccccc2-c2nc3ccccc3[nH]c2=O)cc1	5	3	26	-0.5	5	30
NC(=O)c1ccc(NC(=O)COC(=O)/C=C/c2cn(-c3ccccc3)nc2-c2cccnc2)cc1	13	16	4	-0.3	10	-16
Cc1cc([N+](=O)[O-])nn1CCCC(=O)NC(C)c1ccccc1 (stereo not given)	-11	8	-7	-1.0	-8	1
O=C(NC1CCCC1)C(c1ccncc1)N(C(=O)c1csnn1)c1ccc(F)cc1 (stereo not given)	-1	-3	8	-0.5	-20	17
CN1CCN(c2oc(Cc3cccc4ccccc34)nc2C#N)CC1	-7	-7	-18	0.6	15	-5
O=[N+]([O-])c1cccc(NC(=S)N2CCN(S(=O)(=O)c3ccccc3)CC2)c1	-29	-2	-7	-0.2	-5	-5
Cn1cc(/C=C2\SC(=S)N(NC(=O)c3cccc(Cl)c3)C2=O)c2ccccc21	2	20	7	/	/	0
COC(=O)c1cc(S(=O)(=O)NCC2CCN(Cc3ccccc3F)CC2)c[nH]1	-13	?	4	0.4&-0.1	-1&1	/
CC(C)(C)OC(=O)[C@H](Cc1ccccc1)NC(=O)c1nc[nH]c1C(=O)NCCCCCN	-10	0	0	-0.6	54	-21
O=C(/C=C/c1cccc(F)c1)OCC(=O)c1ccc[nH]1	-2	/	-3	0.7	1	?

In the list so far, 2 contain two or more sulfur atoms.
SMILES	D2 potentiator	TRPV1 potentiator	Six1-Eya2 inh	TRPML1 agonist	TRPML1 blocker	CtBP-E1A inh
O=[N+]([O-])c1cccc(NC(=S)N2CCN(S(=O)(=O)c3ccccc3)CC2)c1	-29	-2	-7	-0.2	-5	-5
Cn1cc(/C=C2\SC(=S)N(NC(=O)c3cccc(Cl)c3)C2=O)c2ccccc21	2	20	7	/	/	0

Going on with the list.
SMILES	D2 potentiator	TRPV1 potentiator	Six1-Eya2 inh	TRPML1 agonist	TRPML1 blocker	CtBP-E1A inh
COc1ccc(NC(=S)Nc2ccc(F)cc2)cc1	-1	-5	-4	-0.7	-11	/
CC1CCCCN1CC(=O)Nc1cc(S(=O)(=O)N2CCOCC2)ccc1N1CCCC1 (stereo not given)	9	-9	-4	-0.4	3	0
COc1ccccc1C(=O)Nc1ccc(C(=O)N2CCCC2)cc1	-1	-8	7	0.0	8	2
COC(=O)[C@H](CC(C)C)NC(=O)Nc1ccc(S(N)(=O)=O)cc1	-2	2	1	/	/	-1
COc1cc(NC(=O)c2cc([N+](=O)[O-])ccc2NC(=O)CN2CCN(c3ccccn3)CC2)cc(OC)c1	5	-17	-22	1.5	-11	-15
O=C(/C=C/Nc1ccccc1)c1ccccc1	-18	6	0	-0.6	-5	5
CCCCC(=O)Nc1cccc(-c2nnc(-c3ccccc3)o2)c1	3	-35	-18	3.5	-10	-5
CCOc1ccc(CCNC(=O)CN2C(=O)CCSc3ccccc32)cc1OCC	-7	7	-4	0.9	3	-24
COc1ccc(NC(=O)c2ccccc2NC(=O)C2CCCO2)cc1 (stereo not given)	-2	-18	1	0.1	-15	0
Cc1ccc(S(=O)(=O)Nc2nncs2)cc1	3	-8	1	0.3	13	-3
COc1ccccc1NC(=O)C1=C(C)Nc2ncnn2C1c1ccccc1C (stereo not given)	0	?	5	2.4	-9	0
CC(=O)Nc1cccc(C(=O)Nc2cccnc2)c1	-3	7	-2	-0.4	-5	-7
Cc1ccc(SC(=O)c2c([N+](=O)[O-])c(C)nn2C)cc1	-13	?	-1	1.2	-5	-5
COc1ccccc1CNC(=O)c1cc(C)nc2ccccc12	-8	-1	-4	-0.1	-10	1
C=CCn1c(=O)c2ccccc2n2c(SCC(=O)NCC)nnc12	-2	-2	21	0.4	-7	0
COCCn1c(-c2ccccc2)cnc1SCC(=O)Nc1cccc2ccccc12	9	19	?	5.5	15	?
Cc1ccc(C(=O)C(OC(=O)c2cnccn2)c2ccccc2)cc1 (stereo not given)	-4	-16	-1	1.4	-3	/
COc1ccc(-c2cc(NC=O)c3ncc(-c4cccc(C(=O)N(C)C)c4)n3c2)c(OC)c1	-4	/	-4	-1.0	/	?
CCCn1c(SCC(=O)N2CCCC(C)C2)nnc1-c1ccccn1 (stereo not given)	-3	-7	5	1.3	-16	0
CC1Cc2nc(SCC(=O)N3CCCc4ccccc43)n(C)c(=O)c2S1 (stereo not given)	-2	14	-1	1.3	-8	-12
CCOC(=O)c1c(N2C(=O)Nc3cc(Cl)c(Cl)cc3N2O)sc2c1CCCCC2	-3	?	-4	6.1	19	-11
Cn1c(SCc2ccc(C#N)cc2)nnc1-c1ccncc1	26	4	-2	/	/	/
O=C(O)/C=C/c1ccc(Cn2ccnc2)cc1	-8&-4	/	-2&3	-0.3&-0.9	-9&-2	6&2
O=C(CNC(=O)c1ccc(Br)o1)Nc1ncccc1O	-1	2	-20	-0.1	-2	?
CCOc1ccccc1NC(=O)COC(=O)c1cc[n+]([O-])cc1	3	2	9	-0.7	21	4
COc1cc(NS(=O)(=O)c2ccc(NC(=O)/C(=C/c3ccccc3Cl)NC(=O)c3ccccc3)cc2)nc(OC)n1	-7	-14	-20	-1.6	-4	-4
CCn1nc(C)c(NC(=O)CCCSc2nc(-c3ccco3)cc(C(F)(F)F)n2)c1C	7	-17	3	0.2	-5	-7
Cc1ccc(N(C(=O)C(F)(F)F)C(C(=O)NC2CCCCC2)c2cccs2)cc1 (stereo not given)	-4	/	0	2.0	-2	8
COc1ccc(S(=O)(=O)N2CC=C(c3ccccc3)CC2)cc1OC	-25	/	-4	0.1	9	-5
O=C(CSc1nnc(-c2ccco2)o1)c1ccc[nH]1	0	-16	4	-0.7	?	-5
CCCN(CCC)Cc1c(C(=O)N/N=C/C(C)=C\c2ccco2)nnn1-c1nonc1N	-5	-1	-22	2.6	16	-13
CC(=O)Nc1nc2ccccc2n1Cc1ccc(C)cc1	10	-1	6	1.8	-2	-17
CCOc1cc(N2CCOCC2)c(OCC)cc1NC(=O)COC(=O)[C@@H]1CCCN1S(=O)(=O)c1ccccc1F	0	-1	-8	0.3	9	4
c1cc(CNc2ccc3c(c2)OCO3)ccn1	18	1	-6	0.3	-6	-10
COc1ccc(OCC(=O)Nc2ccc(N3CCN(C(=O)c4ccccc4)CC3)c(Cl)c2)cc1	12	19	-18	-0.4	0	-3
CNc1ccccc1C(=O)OCC(=O)c1ccc(F)cc1	-1	1	-1	-1.1	-18	-13
COc1cccc(C(=O)NNC(=O)CCC(=O)O)c1	-4	-11	6	0.3	18	9
CCc1ccc(OCc2n[nH]c(=S)n2C(C)CCCC(C)C)cc1 (stereo not given)	0	-10	-9	1.2	-13	3
Cc1cc(C)c(CSc2nnnn2-c2ccc(C(=O)O)cc2)c(C)c1	3	3	-4	0.7	21	-1
Cc1cccc(OCC(=O)Nc2nnc(S(=O)(=O)N3CCc4ccccc43)s2)c1	/	6	/	0.5	13	/
COCCNC(=O)C1CCCN(C(=O)c2sccc2C)CC1 (stereo not given)	-3	/	-1	-0.4	/	0
Cc1cc(=O)n2c(c1C#N)SC1CCCCC12O (stereo not given)	1	8	6	0.6	3	6
CCOC1CCCc2oc(-c3ccc(OC)cc3)c(C(=O)NCCCCO)c21 (stereo not given)	/	/	9	-0.4	/	-13
COc1cccc(NC(=O)Cn2c3ccccc3c3nc4n(c(=O)c32)CCS4)c1	-5	11	-1	-1.1	-7	-7
O=c1cc(CN2CCN(Cc3ccccc3)CC2)c2ccc(O)cc2o1	-24	8	3	0.2	-5	-2
Cc1ccsc1CCNC(=O)C1CCC(=O)N(CCc2cccc(F)c2)C1 (stereo not given)	-6	-17	-9	0.3	-11	25
CC(=O)c1ccc(O)c(CO)c1	3	-1	13	0.0	-10	5
COCc1nnc(NC(=O)CSCc2ccccc2)s1	5	-15	0	4.7	0	7
Cc1nn(Cc2ccccc2)c(C)c1NC(=O)CSc1n[nH]c(C)c1[N+](=O)[O-]	-17	-13	-2	-0.8	-3	8
CCOc1cc2c(cc1O)C(=NO)CC1C2CCC2(C)C(O)CCC12 (stereo not given)	5	/	-18	0.7	13	-2

Given as a markdown table: part of the list above.
| SMILES | D2 potentiator | TRPV1 potentiator | Six1-Eya2 inh | TRPML1 agonist | TRPML1 blocker | CtBP-E1A inh |
| --- | --- | --- | --- | --- | --- | --- |
| CCOc1ccc(CCNC(=O)CN2C(=O)CCSc3ccccc32)cc1OCC | -7 | 7 | -4 | 0.9 | 3 | -24 |
| COc1ccc(NC(=O)c2ccccc2NC(=O)C2CCCO2)cc1 (stereo not given) | -2 | -18 | 1 | 0.1 | -15 | 0 |
| Cc1ccc(S(=O)(=O)Nc2nncs2)cc1 | 3 | -8 | 1 | 0.3 | 13 | -3 |

Compounds shown so far that have bromine, in the order listed:
SMILES	D2 potentiator	TRPV1 potentiator	Six1-Eya2 inh	TRPML1 agonist	TRPML1 blocker	CtBP-E1A inh
Nc1cc2c(cc1C(=O)c1cccc(Br)c1)OCCO2	-2	4	-21	0.3	-12	-22
O=C(CNC(=O)c1ccc(Br)o1)Nc1ncccc1O	-1	2	-20	-0.1	-2	?

(further entries)
SMILES	D2 potentiator	TRPV1 potentiator	Six1-Eya2 inh	TRPML1 agonist	TRPML1 blocker	CtBP-E1A inh
COc1ccc(CC(=O)N[C@@H]2c3ccccc3CC[C@H]2OCc2ccccc2)cc1	-2	/	6	2.7	0	7
Nc1nc2c(ncn2C2CCCC2)c(=O)[nH]1	-2	/	-26	1.5	26	-24
CCn1cc(C(=O)NC(C)C2CC3CCC2C3)cn1 (stereo not given)	-4	25	13	0.1	2	13
C/C(=C\COc1cc(=O)[nH]c2ccccc12)CCC(O)C(C)(C)O (stereo not given)	-8	27	2	/	/	7
N/C(=N\OS(=O)(=O)c1cccc([N+](=O)[O-])c1)c1ccncc1	-9	1	4	-1.0	1	-22
Cc1ccc(S(=O)(=O)N2CCN(S(=O)(=O)c3cccs3)CC2)cc1	15	-6	4	-0.4	-5	8
CC(=O)Nc1c(C#N)c(C(C)(C)C)cn1C	-11	-2	-1	-0.1	-6	23
